LT uptake inh: qHTS Assay for Anthrax Lethal Toxin Internalization; Cells, anthrax lethal toxin internalization, FRET ratio (460/530); Potency, µM (top dose mostly 40 µM), inactives show top-dose activity change, negative = inhibition, hits mostly inhibitors; hit rate 0.67% among 70,000; active = well fitted falling ratio curve with the 530 nm signal flat; inconclusive = other ratio curves, or a change in one channel alone; inactive = flat curves in the ratio and both channels; the % refers to the ratio; further: on the % scale 0 is the no-effect control and ±100 the full control effect; nearly all actives have a fitted effect of over 50% in size; tested in ME-180 cells; beta-lactamase reporter
SmPrx2 inh: Schistosoma Mansoni Peroxiredoxins (Prx2); hit rate 0.07% among 65,000; Potency, µM; Schistosoma mansoni peroxiredoxin 2 (Prx2); S. mansoni Prx2 activity coupled to TGR/GSH (TGR is thioredoxin glutathione reductase), NADPH fluorescence loss, qHTS; some inactives read as strong as hits; active means full or partial inhibition curve with a strong effect at the top dose; inconclusive means weaker partial or single-point curve; inactive means no accepted curve; further: series up to 57 µM; many of its hits are not listed in these tables
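Purified S. mansoni TGR and Prx2 in pH 7.4 phosphate buffer with EDTA and Tween-20 were preincubated with compounds for 15 min. Further NADPH/GSH was added, then a 2.5 mM H2O2 aliquot initiated turnover, followed kinetically by NADPH fluorescence.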
Numbers without * were called inactive; u = inconclusive; x = no result given; & = joins results of further samples; [ ] = another dose, or the depositor's remark. Potency means the concentration at half of the fitted maximal effect.

Below each compound – LT uptake inh	SmPrx2 inh
1	Cc1oc2ccc(OCc3ccc(F)cc3)cc2c1C(=O)O
  10%	>57
2	CCOC(=O)Cc1nnc(NC(=O)COc2ccc(C)cc2)s1
  9%	>57
3	C[C@@H](C(=O)Nc1ccc2ccccc2c1)[C@@H]1C[C@@]1(C)[C@@H](N)c1ccccc1
  u	>57
4	CSc1ccccc1NC(=O)c1cccnc1
  3%	>57
5	O=C(NCC1CCCO1)c1ccc(S(=O)(=O)N2CCCCC2)cc1 (centres undefined)
  3%	>57
6	COc1ccc(-c2cc(C(F)(F)F)nc(SCC(=O)Nc3cc(C)on3)n2)cc1OC
  11%	>57
7	CCOC(=O)C1CCN(C(=O)c2ccc(Cl)c(S(=O)(=O)N3CCOCC3)c2)CC1
  15%	>57
8	Cc1ccc2[nH]c3nc(CCCn4ccnc4-c4ccccc4)nnc3c2c1
  4%[8 µM]	x
9	O=C(CC1(O)C(=O)N(CCc2ccccc2)c2ccccc21)c1ccco1 (centres undefined)
  -2%	>57
10	Cc1cccc2cc(CN(CC3CCCO3)C(=O)c3cnccn3)c(=O)[nH]c12 (centres undefined)
  u	>57
11	CCSc1nsc(SCC)c1C(N)=O
  -5%	x
12	CCCc1cc(=O)oc2cc(C)c3c(C)coc3c12
  u	x
13	CCOc1ccc(NC(=O)CSc2nnc(COc3c(C)cccc3C)o2)cc1
  -2%	>57
14	CCN(CC)S(=O)(=O)c1cccc(-c2nnc(SCCOc3ccccc3C)o2)c1
  u	>57
15	COc1ccc(C2(CNC(=O)c3ccc(Br)o3)CCOCC2)cc1
  6%	>57
16	Cc1cccc2nc(Cn3c(=O)n(CCC(=O)NCc4ccco4)c(=O)c4ccccc43)cc(=O)n12
  -10%	>57
17	CCSc1nnc(-c2cccs2)o1
  -12%	>57
18	CC(C)c1ccccc1
  3%	x
19	Nc1nc(C(=O)N2CCOCC2)nn1S(=O)(=O)c1ccc(Cl)cc1
  0%	>57
20	O=C(CCCNS(=O)(=O)c1cccs1)N1CCc2ccccc2C1
  0%	>57
21	C[C@H](O/N=C1/[C@H]2O[C@@H]2[C@@H](O)[C@H]2[C@H]1CCn1c(=O)n(-c3ccccc3)c(=O)n12)c1cn([C@H]2COC[C@H]2O)nn1
  -6%[0.064 µM]	x
22	COc1cccc(C(c2sc3ncnn3c2O)N2CCc3ccccc3C2)c1 (centres undefined)
  -26%	>57
23	COCCn1c(=O)cnc2cnc(N3CCNCC3)nc21
  7%	>57
24	COc1ccc(C(=N/O)/C(=N/O)c2ccc(OC)cc2)cc1
  -24%	>57
25	COc1cccc(CNC(=O)C2CCCN(S(C)(=O)=O)C2)c1 (centres undefined)
  x	>57
26	CN(C)c1ccc(C2CC(=O)NC3=C2C(=O)CC(C)(C)C3)cc1 (centres undefined)
  6%	x
27	Cc1cccc(CN2CCN(CC(=O)O)C2=O)c1
  0%	>57
28	CS(=O)(=O)N(CC(=O)NCc1ccc2c(c1)OCO2)c1ccccc1
  16%	>57
29	O=C(Nc1nc2c(s1)CCc1ccccc1-2)c1ccco1
  u	>57
30	COc1ncc2nc(CCc3ccccc3)c(=O)n(-c3ccccc3)c2n1
  -19%	>57
31	Cn1c(=O)n2n(c1=O)[C@H]1[C@H](O)[C@H]3O[C@@H]3/C(=N/OC[C@@H](O)COCc3ccco3)[C@@H]1CC2
  -3%[8 µM]	x
32	O=c1c[n+](CC[n+]2cc(=O)o[nH]2)[nH]o1
  7%[8 µM]	>57
33	COc1ccc(S(=O)(=O)N2CCCC(C(=O)NCc3ccccn3)C2)cc1Cl (centres undefined)
  9%	>57
34	C=CC(=O)OCC(CO)(COC(=O)C=C)COC(=O)C=C
  u	x
35	CCOc1cc(C#N)c(NC(=O)c2ccnn2C)cc1OCC
  -1%	>57
36	Cn1nnnc1SCC(=O)Nc1ccccc1-c1ccccc1
  -6%	x
37	O=C(O)c1ccc2nc(C(F)(F)F)[nH]c2c1
  0%	>57
38	CCOC(=O)C1CCCN(C(=O)c2cnn3c(C(F)F)cc(-c4ccc(C)cc4)nc23)C1 (centres undefined)
  -5%	>57
39	CC1=C(C(=O)Nc2ccccn2)C(c2ccc(Br)cc2)n2ncnc2N1 (centres undefined)
  6%	>57
40	N#Cc1c2n(c3c(=O)[nH]cnc13)CCCC2
  2%	>57
41	COC(=O)C/C=C\[C@@H](C)[C@@H](/C=N\OC[C@@H]1O[C@H](c2ccccc2)C=C[C@@H]1Oc1ccc(OC)cc1)NS(=O)(=O)c1ccc(C)cc1
  -12%[8 µM]	x
42	c1ccc(-c2nnc(SCc3nc4ccccc4[nH]3)o2)cc1
  -9%	>57
43	CCCCSCCCNC(=O)Nc1cccc(OC)c1
  -1%	>57
44	COC(=O)c1ccccc1NC(=O)CSc1nnc(-c2cccc(NC(C)=O)c2)n1C
  -15%	x
45	CC1(C)CC(=O)C=C(N2CCNCC2)C1
  8%	>57
46	CCOC(=O)c1cnc(C(C)(C)C)[nH]c1=O
  -5%	>57
47	Cc1cnc(CNc2nc(-c3ccc(C(=O)N(C)C)cc3)nc3ccccc23)cn1
  9%	>57
48	CC(=O)N1CCc2cc(S(=O)(=O)CCC(=O)Nc3cccc(F)c3)ccc21
  0%	>57
49	CCCn1c(SCC(=O)c2ccc3c(c2)OCCO3)nnc1C(C)C
  -3%	>57
50	CCOC(=O)CC(NC(=O)c1ccco1)c1ccccc1Cl (centres undefined)
  1%	>57
51	O=C(CC1Oc2ccccc2NC1=O)NCCCN1CCN(C2CCCCC2)CC1 (centres undefined)
  -8%	u
52	O=[n+]1cc(-c2cc3ccccc3o2)n([O-])c2c1CCCC2
  -1%	>57
53	O=C(CCSc1nnnn1-c1ccccc1)N1CCOCC1
  8%	>57
54	CCOC(=O)C(CC)Sc1nc2c(c(=O)[nH]c(=O)n2C)n1CCc1ccccc1 (centres undefined)
  u	>57
55	O=C(O)[C@@H]1[C@@H]2C[C@H]([C@@H](Br)[C@H]2N2C(=O)CCC2=O)[C@@H]1C(=O)O
  0%[8 µM]	>57
56	CCCCn1c(N)c(N(CCOC)C(=O)CSc2nc3ccc(C)cc3[nH]2)c(=O)[nH]c1=O
  6%	>57
57	CC(CC(=O)O)CC1=NS(=O)(=O)c2ccccc2N1 (centres undefined)
  18%	>57
58	COc1cccc(Cn2c(=O)c(C)nc3cnc(Nc4cccc(OC)c4)nc32)c1
  u	x
59	COc1ccc(C(=O)NCCc2nnc(SCC(=O)Nc3ccccc3)n2C)cc1
  14%	>57
60	Cc1cc(C(F)(F)F)n2nc(C(=O)O)c(Cl)c2n1
  11%	>57

(next part)
Below each compound – LT uptake inh	SmPrx2 inh
61	Cc1cc(=O)[nH]c(SCC(=O)Nc2ccc(Br)cn2)n1
  u	>57
62	Cc1cccn2c(=O)c3cc(C(=O)NC(C)C)c(=N)n(Cc4ccncc4)c3nc12
  u	x
63	CCOC(=O)CN1CC23C=CC(O2)C(C(=O)Nc2ccc(C(C)=O)cc2)C3C1=O (centres undefined)
  3%	>57
64	COc1ccc(NC(=O)C2CCN(C(=O)NC3CCCCC3)CC2)c(OC)c1
  u	>57
65	COc1cc(NC(=O)CN(c2cc(C)cc(C)c2)S(=O)(=O)c2c(C)noc2C)cc(OC)c1
  -11%	>57
66	O=C(O)c1cc(=O)c2ccccc2[nH]1
  u	>57&>57
67	Cc1ccccc1NS(=O)(=O)c1cc(C(=O)NCc2ccco2)ccc1C
  -17%	>57
68	CN(CCc1ccc(Cl)c(Cl)c1)[C@H]1CCCC[C@H]1N1CCCC1
  25µM*	>57
69	CSc1c(C#N)c(N)c(C#N)c2c1COC(C)(C)C2
  -12%	>57
70	CCCN1C2CCCC1CC(NC(=O)c1cc(OC)c(OC)c(OC)c1)C2 (centres undefined)
  2%	>57
71	Cc1ccc(N(C(=O)Cn2nnc3ccccc32)C(C(=O)NC2CCCCC2)c2cn(C)nc2C)cc1 (centres undefined)
  -3%	>57
72	COc1cccc(-c2ccc3ncnc(N(C)Cc4ccco4)c3c2)c1
  u	>57
73	C[C@H]1[C@H](C)CC[C@]2(C(=O)O)CC[C@]3(C)C(=CC[C@@H]4[C@]5(C)C[C@H](O)[C@@H](O)[C@@](C)(CO)[C@@H]5[C@H](O)C[C@@]43C)[C@H]12
  -3%[8 µM]	>57
74	COC(=O)C(C)NC(=O)C12CC3CC(CC(C3)C1)C2 (centres undefined)
  u	>57
75	O=C(c1cc(Cl)cc(Cl)c1)N1CCOCC1
  u	>57
76	O=C1N=C(O)CN1/N=C\c1ccc(-c2ccc([N+](=O)[O-])cc2)o1
  u	>57&>57&>57
77	CC(C)=CCc1c2c(c3occ(-c4ccc(O)c(O)c4)c(=O)c3c1O)C=CC(C)(C)O2
  u	>57
78	COCCCNC(=O)COc1ccc(S(=O)(=O)Nc2ccccc2)cc1
  -1%	>57
79	O=C(NCC1CCCO1)C1CCN(C(=O)c2ccc(Br)cc2)CC1 (centres undefined)
  u	>57
80	O=C(CSc1nnc(-c2cccnc2)n1C1CCCCC1)NC1CCCCC1
  11%	>57

A different layout for part of the listing above:
77) CC(C)=CCc1c2c(c3occ(-c4ccc(O)c(O)c4)c(=O)c3c1O)C=CC(C)(C)O2
  LT uptake inh = u	SmPrx2 inh = >57
78) COCCCNC(=O)COc1ccc(S(=O)(=O)Nc2ccccc2)cc1
  LT uptake inh = -1%	SmPrx2 inh = >57
79) O=C(NCC1CCCO1)C1CCN(C(=O)c2ccc(Br)cc2)CC1 (centres undefined)
  LT uptake inh = u	SmPrx2 inh = >57
80) O=C(CSc1nnc(-c2cccnc2)n1C1CCCCC1)NC1CCCCC1
  LT uptake inh = 11%	SmPrx2 inh = >57

Continued.
Below each compound – LT uptake inh	SmPrx2 inh
81	CCCCC(=O)NC(Nc1cc(C)ccn1)(C(=O)OCC)C(F)(F)F (centres undefined)
  2%	>57
82	CCOC(=O)C1CCN(CC(=O)N2C(C)CCCC2C)CC1 (centres undefined)
  -7%	>57
83	Cc1ccc2c(c1)CC1(CN2C)C(=O)NC(=O)N(CCC2=CCCCC2)C1=O (centres undefined)
  10%	>57
84	COc1ccc(C)cc1S(=O)(=O)N1CCN(Cc2ccccc2)CC1
  4%	>57
85	COc1nc(-c2ccccc2)ccc1-c1noc(-c2cccs2)n1
  -2%	>57
86	COC(=O)[C@@H](NC(=O)NCc1ccccc1Cl)C(C)C
  0%	>57
87	COc1ccc(CCn2c(NCCCN3CCOCC3)nc3c2c(=O)[nH]c(=O)n3C)cc1
  6%	>57
88	Cn1c(=O)c2cc(S(=O)(=O)NCCC(=O)NCCc3ccc(Cl)cc3)ccc2n(C)c1=O
  0%	>57
89	COc1ccc(OC)c(C(C)NC(=O)c2ccco2)c1 (centres undefined)
  -15%	x
90	COc1cccc(Cn2c(=O)c(-c3cccs3)nc3cnc(Nc4cccc(OC)c4)nc32)c1
  u	>57
91	CC(C)NS(=O)(=O)c1ccc(CCC(=O)NCc2ccco2)cc1
  2%	>57
92	Cc1oc(C(=O)O)cc1COc1ccc2c3c(c(=O)oc2c1C)CCCC3
  -11%	x
93	Cc1ccc(CNC(=O)CCCn2c(=O)c3ccccc3n(CC(=O)NC3CCCC3)c2=O)cc1
  8%	>57
94	CC(C)N(Cc1nc(-c2ccc(Cl)cc2)no1)C(=O)CCCN1C(=O)c2ccccc2C1=O
  u	>57
95	CC(C)C[C@H](NC(=O)Nc1ccc(S(N)(=O)=O)cc1)C(=O)O
  2%	>57
96	COC(=O)C1=C(N)Oc2cc(C)n(Cc3ccco3)c(=O)c2C1c1cccc(Cl)c1 (centres undefined)
  u	>57
97	CCOc1ccccc1-n1c(O)c(C=NCCCN(CC)CC)c(=O)[nH]c1=O
  -17%	>57
98	Cc1nnc(OCc2nc3ccccc3n2C)c2ccccc12
  -5%	>57
99	N#CCCSc1ncnc2c1oc1ccccc12
  u	>57
100	O=C1CSC(c2cn(-c3ccccc3)nc2-c2ccc3c(c2)OCCO3)N1CCN1CCOCC1 (centres undefined)
  -4%	>57
101	Cc1nc2ccccn2c1C(=O)NCc1cccnc1
  -1%	>57
102	C(=N/Nc1ccccn1)/c1cccnc1
  12%[8 µM]	>57
103	O=C1CCNc2cc3ccccc3cc21
  29%	>57
104	NCCCCC(=O)O
  -1%	>57
105	CCn1c(-c2ccco2)nc2ccccc21
  9%	x
106	COc1cccc(C(=O)Cn2c(N3CCOCC3)nc3c2c(=O)n(C)c(=O)n3C)c1
  3%	>57
107	CCCCOCCCNC(=O)c1ccc2c(c1)OCO2
  5%	x
108	CCC(Sc1nc2cc3c(cc2c(=O)n1Cc1ccco1)OCO3)C(=O)Nc1ccccc1OC (centres undefined)
  -14%	>57
109	CC(=O)c1c(NCc2ccccc2)nc(=O)n(-c2ccccc2)c1C
  -10%	>57
110	CCCc1c(O)nc(SCCN(CCC)CCC)[nH]c1=O
  -8%	>57
111	CCOC(=O)c1cnn(-c2cccc(Cl)c2)c1N
  -3%	>57
112	Cc1nc(SCC(=O)Nc2cc(C)on2)c2c(=O)n(C)c(=O)n(C)c2n1
  8%	>57
113	c1ccc(-c2nc(NCc3cccnc3)c3oc4ccccc4c3n2)cc1
  -43%	>57
114	CC(C)C(NC(=O)OCc1ccccc1)C(=O)OCC(=O)NCc1ccco1 (centres undefined)
  -2%	>57
115	Cc1ccc(C(=O)Nc2ccc3c(c2)nc2n3CCSC2)cc1
  -14%	>57

High-throughput results as filed in PubChem BioAssay.

Not all compounds are listed; count on the stated rates, not on these rows.
